High-throughput results deposited in PubChem by several laboratories.
UCH37 DUB inh = inhibitors of human UCH37 deubiquitinase, primary screen, biochemical, Ub-AMC cleavage, fluorescence | purified proteasome/UCH37 | inhibition, % (no concentration beside the values) | 330,000 compounds, 0.33% hits;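 active = mean of two replicates above 20%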;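 note: 0% = compound-free wells with enzyme and 100% = wells lacking proteasome; stock transfer was 100 nL into about 20 µL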
Target sequence (Q9Y5K5 whole entry, looked up): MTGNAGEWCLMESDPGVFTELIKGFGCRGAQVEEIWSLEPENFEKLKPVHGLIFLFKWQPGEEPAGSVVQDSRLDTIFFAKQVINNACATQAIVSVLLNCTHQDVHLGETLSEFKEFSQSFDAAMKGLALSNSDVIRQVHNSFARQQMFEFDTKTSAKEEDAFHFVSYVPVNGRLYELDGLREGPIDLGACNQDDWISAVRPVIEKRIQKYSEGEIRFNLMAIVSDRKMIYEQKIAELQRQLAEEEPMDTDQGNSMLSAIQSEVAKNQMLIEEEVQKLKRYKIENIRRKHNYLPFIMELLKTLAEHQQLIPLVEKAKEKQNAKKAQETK
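Material: Human UCH37 enzyme supplied as purified proteasome complex | Schedule: 30 min preincubation with enzyme, 25 min cleavage at room temperature | Detection: AMC fluorescence 355/460 nm | Measure: % inhibition of Ub-AMC cleavage fluorescence | Controls: Wells without proteasome as full block, compound-free enzyme plus substrate as uninhibited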
Ecoli growth = E. coli growth inhibition, primary screen, OD600; Escherichia coli growth, 23 h; stronger effect = lower value; 330,000 compounds, 0.21% hits; OD600 absorbance (test concentration not listed);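 active = OD600 absorbance below the run mean of sample wells minus 3.6 SD, in any replicate, cut at about 0.56 in these data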;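 note: stock transfer was 300 nL into about 60 µL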
HNF4A DNA FP = change in binding of human HNF4A to DNA, primary screen, biochemical, fluorescence polarization, FITC-DNA; 360,000 compounds, 0.3% hits; AID 1224865, 2016; Hepatocyte nuclear factor 4-alpha (Homo sapiens), P41235; 1 h; activity change, % at 10 µM; in the data active = activity change above about 30%, passing the limit was not always enough;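 note: controls were the assay level and a saturating level of protein; the project sought stronger binding though the title names inhibitors; some compounds called inactive have numbers as strong as hits; positive values seem to mean higher polarization but the record does not say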
FGF22 binding = binders of human FGF22 protein, primary screen, FGF22 synaptogenesis inhibitor project, biophysical, thermal shift, single point; calls only at 9.99 µM; Fibroblast growth factor 22 (Homo sapiens), Q9HCT0; 340,000 compounds, 1.5% hits; recombinant FGF22 thermal shift, SYPRO orange fluorescence; percent of sucrose octasulfate shift, DMSO zero;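 active = melting point raised past a set limit in the mean and every replicate; inconclusive = no clear call; three in four hits are not shown here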
Target sequence (Q9HCT0 whole entry, looked up): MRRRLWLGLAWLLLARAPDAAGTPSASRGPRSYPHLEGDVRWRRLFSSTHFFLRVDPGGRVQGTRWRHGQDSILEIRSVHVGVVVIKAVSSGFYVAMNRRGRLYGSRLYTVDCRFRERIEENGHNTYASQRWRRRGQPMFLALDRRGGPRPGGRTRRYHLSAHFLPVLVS
AF4-AF9 inh = inhibitors of AF4 peptide binding to AF9, primary screen, biochemical, AlphaScreen, biotin-AF4 peptide, FLAG-AF9, single point; Protein AF-9 (Homo sapiens), P42568; inhibition, % at 10 µM; 350,000 compounds, 0.47% hits; AID 651704, 2012;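 active = every replicate reaching a set inhibition limit, whatever the replicate mean, cut at about 25% in these data; inconclusive = mean inhibition reaches that limit but some replicates miss it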;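 note: 0% = plate neutral control median and 100% = total signal loss; the record names both 10 and 1 µM as test concentration; the first replicate is given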
Target sequence (P42568 whole entry, looked up): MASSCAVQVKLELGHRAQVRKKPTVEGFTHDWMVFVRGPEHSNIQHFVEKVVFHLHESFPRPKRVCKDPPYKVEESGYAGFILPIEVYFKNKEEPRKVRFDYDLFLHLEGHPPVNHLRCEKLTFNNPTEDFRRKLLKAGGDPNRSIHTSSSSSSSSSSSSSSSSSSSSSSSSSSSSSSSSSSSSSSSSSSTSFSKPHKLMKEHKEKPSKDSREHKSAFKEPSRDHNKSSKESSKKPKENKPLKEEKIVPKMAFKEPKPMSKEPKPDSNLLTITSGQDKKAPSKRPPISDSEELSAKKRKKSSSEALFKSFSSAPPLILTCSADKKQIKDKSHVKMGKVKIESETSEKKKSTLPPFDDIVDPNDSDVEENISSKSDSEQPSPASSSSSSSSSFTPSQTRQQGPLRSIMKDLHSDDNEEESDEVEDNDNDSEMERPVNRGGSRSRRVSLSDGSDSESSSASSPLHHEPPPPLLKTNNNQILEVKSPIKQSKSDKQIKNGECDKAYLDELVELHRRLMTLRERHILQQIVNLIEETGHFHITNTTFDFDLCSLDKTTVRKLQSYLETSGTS
Vif A3G = inhibitors of Vif binding to APOBEC3G peptide, primary screen, biochemical, TR-FRET, GST-Vif 1-94, biotin-A3G peptide, dose response retest (AID 1117319); inhibition, %, or IC50 in µM where a hit was titrated; 260,000 compounds, 0.57% hits; Virion infectivity factor (Human immunodeficiency virus type 1 group M subtype B (isolate …; TR-FRET GST-Vif / biotin-A3G peptide binding; higher % means a stronger effect; test concentration not given here; strong numbers were not always called active;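 active = above the screen mean plus three standard deviations and confirmed in dose response; inconclusive = results disagree or hit not tested in dose response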;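 note: Vif residues 1-94 fused to GST binding biotinylated APOBEC3G peptide 110-148; 0% = full assay without inhibitor and 100% = GST in place of GST-Vif; retest series ran down from 100 µM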
RanGTP-Imp inh = inhibitors of RanGTP-importin-beta interaction, primary screen, biochemical, FRET, CFP-Ran, YFP-importin-beta, homogeneous; Ran GTPase (GTP-bound) - importin-beta complex; cell-free CFP-Ran/YFP-importin-beta FRET ratio; inhibition, % (no concentration beside the values); 300,000 compounds, 1.1% hits;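 active = most replicates above 15%; inconclusive = exactly half above 15%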;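 note: 0% = DMSO wells and 100% = Ran loaded with GDP instead of GTP; wells of about 40 µL received 100 nL stock; the first replicate is given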
* hit, by the source's call; i = inactive; ? = inconclusive; . = no result given; + = active, no number; & = joins results of further samples.

SMILES	UCH37 DUB inh	Ecoli growth	HNF4A DNA FP	FGF22 binding	AF4-AF9 inh	Vif A3G	RanGTP-Imp inh
CCCCOc1ccc(CN(CCO)CCO)cc1[N+](=O)[O-]	7.6	0.664	4.0	i	1.9	.	0.8
O=C1CCC(C(=O)N2CCC(O)CC2)CN1CCc1ccc(Cl)cc1 (stereo unspecified)	5.7	0.723	2.6	i	0.0	.	0.4
O=C(OCCN=C1NS(=O)(=O)c2ccccc21)c1ccco1	1.2	0.67	-2.1	i	0.1	-0.2%	?
Cn1c(CNC(=O)c2ccc(F)cc2)cc2ccccc21	2.3	0.637	-1.4	i	-0.6	1.4%	2.6
CCOc1ccccc1/C=N/NC(=O)CNC(=O)c1cccs1	.	.	1.3	i	-0.4	.	-0.5
O=C(NCCN1CCOCC1)Nc1cccc(Cl)c1	2.5	0.695	-0.6	i	-3.2	9.2%	-1.1
CC(=O)Nc1ccc(NC(=O)C(C)OC(=O)C2CCCCC2)cc1 (stereo unspecified)	-0.1	0.689	-5.0	i	-2.1	.	.
COc1ccc(NC(=O)c2cc(C3CCCCN3C(=O)C3CC3)on2)c(C)c1 (stereo unspecified)	.	.	-2.1	i	-2.4	.	.
CC(C)Cn1c(NCCN(C)C)nc2c1c(=O)[nH]c(=O)n2C	3.7	0.695	-1.9	.	.	16.5%	4.0
COc1ccccc1CNCc1cccc(Oc2ccccc2)c1	0.8	0.627	-0.7	.	3.2	4.6%	-2.3
Cc1cccc(C)c1N(CC(=O)N1CCN(C)CC1)S(C)(=O)=O	3.5	0.695	2.2	.	.	-1.4%	-2.1
COc1cccc(-n2c(SCc3cc(=O)oc4cc(O)c(O)cc34)nc3ccccc3c2=O)c1	-1.8	0.691	-10.8	i	8.1	.	0.7
O=C(Nc1cccc(S(=O)(=O)NC2=NCCCCC2)c1)c1cccnc1Cl	3.9	0.719	-2.9	i	0.4	6.0%	-3.9
CC(NC(=O)CCc1ccccc1)c1ccc2c(c1)OCO2 (stereo unspecified)	4.4	0.72	2.9	i	-8.8	.	4.9
CC(C)N(C(=O)CSc1nc2ccccc2n1Cc1ccccc1F)C(C)C	-0.4	0.684	0.6	.	.	-6.9%	0.2
COc1ccc(OC)c(-c2cc(C(=O)Nc3cc(C)on3)no2)c1	-139.7	0.734	1.8	.	.	26.6%	1.6
COc1ccc(N2CCN(C(c3ccco3)c3sc4nc(C)nn4c3O)CC2)cc1 (stereo unspecified)	7.2	0.706	1.7	i	2.1	13.9%	-1.6
O=C(CC1OC(=O)c2ccccc21)NCC1COc2ccccc2O1 (stereo unspecified)	0.3	0.678	-5.4	i	-1.0	2.1%	-4.2
CCOC(=O)/C(C#N)=C/c1c(OCC)n(CC)c2ccccc12	3.1	0.674	1.7	i	7.7	>100µM*	-2.5
O=C(NC1(Cc2ccccc2)CCN(Cc2ccc(-c3ccccc3)cc2)C1=O)c1ccccc1 (stereo unspecified)	0.7	0.663	3.9	i	-1.2	.	.

Part of the list above, bar-delimited.
molecule | UCH37 DUB inh | Ecoli growth | HNF4A DNA FP | FGF22 binding | AF4-AF9 inh | Vif A3G | RanGTP-Imp inh
CCOc1ccccc1/C=N/NC(=O)CNC(=O)c1cccs1 | . | . | 1.3 | i | -0.4 | . | -0.5
COc1ccc(N2CCN(C(c3ccco3)c3sc4nc(C)nn4c3O)CC2)cc1 (stereo unspecified) | 7.2 | 0.706 | 1.7 | i | 2.1 | 13.9% | -1.6

Remaining list, next part
SMILES	UCH37 DUB inh	Ecoli growth	HNF4A DNA FP	FGF22 binding	AF4-AF9 inh	Vif A3G	RanGTP-Imp inh
COc1ccccc1N1CCN(CC(=O)Nc2ccc(S(=O)(=O)N3CCCCCC3)cc2)CC1	1.7	0.663	5.8	i	-3.4	.	.
COc1ccccc1N=C1SCC(=O)N1c1ccccc1OC	3.2	0.73	-1.0	.	.	-2.9%	26.9
COc1ccc(C)cc1NC(=O)c1ccoc1C	0.1	0.761	2.1	.	.	?	0.4
Cc1ccc(C(=O)N/C(=C/c2ccc(Cl)cc2)C(=O)NCC2CCCO2)cc1 (stereo unspecified)	-3.2	0.673	2.6	.	.	-2.8%	0.6
O=C(O)COc1ccccc1/C=N/NC(=O)/C(=C\c1ccc2c(c1)OCO2)NC(=O)c1ccccc1	.	.	2.2	i	-1.1	-0.3%	2.6
CC(C)(C)S(=O)N1Cc2cc(C(=O)NCc3ccc4c(c3)OCO4)nc(-c3cccc(-c4cc5ccccc5o4)c3)c2[C@@H]1CCO (stereo partly specified)	.	.	15.3	i	14.5	.	.
CN(C)/C(=N\S(=O)(=O)c1ccccc1)c1ccccc1	.	.	1.5	i	-1.0	.	0.6
Cc1c(NC(=O)NCCN2C(=O)C3C4C=CC(C4)C3C2=O)c(=O)n(-c2ccccc2)n1C (stereo unspecified)	-0.3	0.741	0.4	i	-0.7	6.4%&-3.2%	1.3
Cc1ccc(CN2CCN(/N=C\C(Br)=C\c3ccccc3)CC2)cc1	.	.	1.1	.	.	-2.5%	1.3
O=C(CSCc1nc2scc(-c3cccs3)c2c(=O)[nH]1)Nc1ccccn1	-1.7	0.669	3.5	.	-1.8	.	3.9
CCn1c(Oc2ccccc2F)nc2c1c(=O)n(C)c(=O)n2C	1.6	0.628	-6.3	i	-0.3	.	-3.3
COc1ccccc1OCc1nc(-c2cccc([N+](=O)[O-])c2)no1	1.0	0.703	-0.3	i	3.8	-6.1%	4.0
Cc1cc(C)n2ncc(C(=O)NCc3cccnc3)c2n1	-46.6	0.695	-0.2	.	.	14.4%	-4.8
Cc1nn(S(=O)(=O)c2ccc(C(C)(C)C)cc2)c(C)c1S(=O)(=O)N1CCOCC1	-0.5	0.703	-1.5	i	-0.7	.	-1.2
COc1ccc2cc(CCNC(=O)c3cc4ccccc4o3)c(=O)[nH]c2c1	1.9	0.697	0.6	+	-1.1	.	6.4
CC1(C)CC(NC(=O)C(C)(C)Oc2ccc(Cl)cc2)CC(C)(C)N1	0.0	0.703	2.3	i	-5.3	.	-5.7
O=C(c1ccco1)N1CCN(C(c2cccs2)c2nnnn2C2CCCCC2)CC1 (stereo unspecified)	2.7	0.699	-5.7	i	-44.2	-0.2%	2.6
COc1ccc(CNC(=O)C2CCN(S(=O)(=O)c3ccc4c(c3)CC(C)N4C(C)=O)CC2)cc1 (stereo unspecified)	2.2	0.625	0.4	i	2.3	0.3%	2.0
COc1ccc(S(=O)(=O)N=C2C=C(C)C(=O)C(C)=C2)cc1	1.0	0.732	-2.1	.	.	16.8%	-0.1
Cc1cc(C(=O)NNC(=O)c2nn(C)c(=O)c3ccccc23)c(C)o1	-3.6	0.638	1.1	i	-2.1	-2.7%	2.0
Cc1ccc(CNS(=O)(=O)NCc2ccc(Cl)cc2)cc1	7.0	0.738	0.2	i	0.0	8.5%	2.9
Cc1ccc([N+](=O)[O-])c(OCC(O)CNC(C)(C)C)c1 (stereo unspecified)	4.2	0.641	-1.1	i	5.0	3.9%	?
Cc1ccc(-n2nnnc2SCC(=O)Nc2sc(C)c(C)c2C#N)cc1C	5.9	0.67	8.3	i	4.4	13.7%	-3.8
Cc1ccc(S(=O)(=O)NCCC(=O)NC2CCC(C)CC2)cc1 (stereo unspecified)	-0.8	0.714	1.9	i	-1.0	.	.
CC(C)N(Cc1ccccc1)C(=S)NC(=O)C1(C)CC1(Cl)Cl (stereo unspecified)	6.5	0.708	-1.7	.	2.7	9.1%	-0.7
O=C(Nc1cc2cc([N+](=O)[O-])ccc2oc1=O)c1cccs1	2.2	0.663	.	.	.	-1.7%	2.0
Cc1onc(-c2ccccc2)c1C(=O)OCC(=O)N1CCC(C)CC1	-1.2	0.661	0.6	i	-8.7	20.5%	.
Cc1cccc(NC(=O)Nc2cnccn2)c1	2.7	0.711	-0.5	i	-0.2	?	-2.8
COc1ccc(S(=O)(=O)NC(N)=NCCc2ccccc2OC)cc1	3.5	0.673	3.7	i	1.8	-1.8%	-3.5
CCCc1nc(SCc2ccccc2Cl)n[nH]1	-2.2	0.734	-4.0	.	.	-5.6%	-0.7
CC(NC(=O)COC(=O)c1cc(S(=O)(=O)N2CCOCC2)ccc1F)c1ccccc1 (stereo unspecified)	-2.5	0.689	2.2	i	5.0	4.2%	.
COc1ccc(Nc2nc3ccc(C)cc3n3cnnc23)cc1Cl	.	.	7.3	i	-2.6	.	-4.2
CCCCOC(=O)Nc1ccc(N2CCOCC2)cc1	5.1	0.708	3.0	.	.	6.3%	-9.2
O=C(/C=C/c1c(F)cccc1Cl)NCc1ccco1	-0.1	0.71	0.3	i	4.0	0.1%	-0.6
O=C(COc1ccc2ccc(=O)oc2c1)NC1CCCC1	-22.0	0.655	-5.1	i	-2.7	4.0%	3.1
COC(=O)c1ccc(CNC(=O)C2CCC(=O)N(CCc3ccccc3)C2)cc1 (stereo unspecified)	-0.2	0.707	0.7	i	0.7	.	1.7
CCc1ccc2c(c1)/C(=N/N(C)C(=S)NC)C(=O)N2	.	.	0.7	.	.	4.3%	-0.2
COc1cccc(CN(C)S(=O)(=O)c2cccs2)c1	0.1	0.707	3.7	i	1.3	.	-3.4
CCN(CC)C(=O)N1CCN(C(=O)N2CCOCC2)CC1	1.8	0.649	-3.7	i	-1.4	.	-1.9
CC(C)[C@H]1C=C(C(=O)O)O[C@@H](OCc2ccc(CO)cc2)C1	-2.1	.	-2.2	i	-1.8	-17.5%	3.4
COc1ccc(-c2cc(C(=O)N(C)CC(=O)Nc3ccccc3C(F)(F)F)c3ccccc3n2)cc1OC	-20.0	0.687	2.2	i	3.8	.	.
COc1ccc(N2C(=O)C3CCCN3C2c2ccc(C)cc2)cc1Cl (stereo unspecified)	4.7	0.671	-2.8	.	.	-4.2%	1.5
C/C(=N/Nc1ccc(F)cc1)c1ccc(Cl)s1	.	.	-1.4	i	-3.4	-3.5%	0.9
O=C(C[n+]1ccc2ccccc2c1)c1ccc(NC(=O)c2ccccc2)cc1	6.6	0.693	3.1	.	.	0.9%	-2.7
NC(=O)c1cc([N+](=O)[O-])ccc1NCc1ccc(F)cc1	0.4	0.668	3.7	i	-1.4	.	.
COc1ccc(N2C(=O)c3ccccc3NC2c2ccc(OC)c(Cn3cc([N+](=O)[O-])cn3)c2)cc1 (stereo unspecified)	1.9	0.713	2.5	i	-0.1	0.3%	-3.7
CCSc1nnc(NC(=O)c2ccccn2)s1	2.4	0.665	6.3	.	.	18.0%	1.8
CCCc1cc(=O)oc2cc(OC(=O)CN3C(=O)NC4(CCCC4)C3=O)ccc12	i	0.641	0.2	i	-2.5	2.9%	.
CCCCn1c(=O)[nH]c(=O)c2c1nc(-c1cc3c(cc1Br)OCO3)n2C	2.1	0.672	2.5	.	-2.0	-46.0%	-5.4
Cc1sc(NC(=O)CSc2ncn(-c3ccccc3)n2)nc1-c1ccccc1	2.3	0.696	0.6	.	.	-3.2%	2.6
O=C(O)c1ccc(N2C(=O)CC(N3CCC(c4nc5ccccc5[nH]4)CC3)C2=O)cc1 (stereo unspecified)	1.4	0.626	-0.6	i	-2.3	0.7%	-0.2
CCOC(=O)N1CCN(Cc2nc(-c3cccs3)no2)CC1	1.2	0.636	-1.2	i	-1.4	0.4%	-1.9
O=C(Nc1ccc(Oc2ccccc2)cc1)C1CCN(c2c3c(nc4ncnn24)CCC3)CC1	3.1	0.678	-2.7	.	.	-2.4%	-2.0

An excerpt; the hit share may differ from the screen's.
